Mtb hypoxia inh = reduces hypoxia-regulated biosensor signal in M. tuberculosis; M. tuberculosis hypoxia-regulated fluorescent reporter, fluorescence; fluorescence inhibition, % (no concentration beside the values); 300,000 tested, 0.1% active;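 active = 35 to 45% if threefold the growth effect, above 45% if 1.5-fold the growth effect; inactive = the rest, general growth blockers included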;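 also: wells of about 50 µL received 100 nL stock; 0% = vehicle wells and 100% = reference inhibitor wells; whole bacteria with a GFP reporter of the hypoxia response; strong numbers were not always called active; many hits fall short of the cut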
BJeLR lethal = kills HRASV12-expressing BJeLR cells; BJeLR (HRASV12) viability, CellTiter-Glo ATP luminescence, 48 h; reference of the scale not given here; inhibition, % (no concentration beside the values); 300,000 tested, 0.17% active;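 active = replicate mean above 50%; inconclusive = above 50% but judged a plate artefact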;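 also: 50 nL library stock added to about 25 µL; numbers are from one replicate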
PrP UTR inh = suppresses PrP 5' UTR mRNA reporter expression; cell-based PrP 5' UTR mRNA reporter, plate reader; inhibition, % (test concentration not listed); 340,000 tested, 0.35% active; AID 488862;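 active = every replicate at 50% or more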;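 also: 0 = median of the neutral control wells; tested in H4 reporter cells; numbers are from one replicate; inactives centre near -14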
RN4220 kill = S. aureus RN4220 growth inhibition; OD600, 16 h; inhibition, % (concentration not given with the values); 330,000 tested, 0.33% active;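 active = z-score of -3 or lower and OD600 up to 0.18 on both plates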;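 also: plate controls were untreated cells for no effect and reference antibiotic for full effect; stock transfer was 100 nL into about 80 µL; one replicate is shown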
ugtP null kill = compounds lethal to S. aureus RN4220 ugtP deletion mutant; OD600 growth, 16 h; some inactives read as strong as hits; 330,000 tested, 0.54% active; AID 1259309; growth inhibition, % (no concentration beside the values);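 active = z-score under -3 and OD600 up to 0.15 on both plates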;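 also: plate controls were untreated wells for no effect and antibiotic for full effect; wells of about 80 µL received 100 nL stock; the first replicate is given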
Bead autofluor = counter-screen for toxin protease inhibitors: compound fluorescence | compound autofluorescence counterscreen, microsphere flow cytometry; active compounds read high | fluorescence intensity (no concentration beside the values) | 360,000 tested, 3.1% active;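 active = at least 3 SD above the mean of all compounds, about 16000 in these data; inconclusive = too few beads counted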;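 also: 100 nL of 1 mM stock went into each well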
Mtb hypoxia inh growth = further read-out of Mtb hypoxia inh, marked with its call; growth inhibition, %; measured here: M. tuberculosis growth (absorbance);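 0% = vehicle and 100% = reference antibiotic; read after six days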
* = called active by the depositor; ? = inconclusive; nt = no result given.

Letters: A = Mtb hypoxia inh; B = Mtb hypoxia inh growth; C = BJeLR lethal; D = PrP UTR inh; E = RN4220 kill; F = ugtP null kill; G = Bead autofluor
CCN(CC)C(=O)c1sc2c(c1C)c(=O)n(-c1ccc(OC)cc1OC)c(=O)n2CC(=O)c1ccccc1
  A: 1.2	B: 2.4	C: -8.7	D: -8.9	E: 1.1	F: 7.1	G: 4031
CCC(=O)Nc1nc(-c2cc([N+](=O)[O-])cs2)cs1
  A: nt	B: nt	C: 0.5	D: -40.3	E: 2.5	F: 3.3	G: 3087
CCOC(=O)c1oc2ccc(S(=O)(=O)N3CCC(C)CC3)cc2c1C
  A: 2.3	B: 7.7	C: 12.3	D: -31.9	E: 4.4	F: -1.4	G: 10231
CC1CCN(CC(=O)Nc2ccccc2-c2ccccc2)CC1
  A: 11.1	B: 8.4	C: -3.2	D: -9.5	E: 8.4	F: 4.4	G: 11295
O=S1(=O)CCC(SCc2nc3sccn3c2Br)C1 (stereo not drawn)
  A: 2.5	B: -8.1	C: -0.5	D: -22.5	E: 0.6	F: 7.5	G: 8250
O=[N+]([O-])c1ccc2[nH]c(O)c(N=NC3CS(=O)(=O)CC3O)c2c1 (stereo not drawn)
  A: -9.7	B: -4.0	C: -1.6	D: -24.5	E: 2.3	F: -4.1	G: 4521
C[n+]1ccccc1COc1ccc(C(C)(C)C)cc1
  A: 7.5	B: 4.7	C: 9.8	D: -18.2	E: 4.3	F: 9.0	G: 2438
COc1ccccc1CNC(=O)C(=O)NCC(c1ccco1)N1CCOCC1 (stereo not drawn)
  A: 6.0	B: 15.9	C: 22.1	D: -21.2	E: 3.0	F: 7.9	G: 4539
Cc1ccc(-c2c(C(=O)O)c(C(=O)O)c3n2CSC3)cc1
  A: 14.6	B: 4.1	C: 5.3	D: -8.9	E: -6.8	F: 7.3	G: 3301
Cc1nc2ccc(NC(=O)COc3cccc(F)c3)cc2s1
  A: 6.4	B: 2.4	C: -0.5	D: -8.4	E: 9.4	F: -4.7	G: 4736
Oc1ccccc1N1CCN(C(c2ccccc2)c2ccccc2)CC1
  A: -7.3	B: -2.3	C: -9.3	D: -19.2	E: -3.3	F: -14.4	G: 5809
O=C(CCNS(=O)(=O)c1ccccc1F)N1CCN(Cc2ccccc2)CC1
  A: 3.6	B: 11.3	C: 5.1	D: -25.1	E: 1.5	F: 1.8	G: 4481
c1csc(C2C3=C(Nc4ncnn42)c2ccccc2OC3)c1 (stereo not drawn)
  A: nt	B: nt	C: -10.3	D: -13.2	E: 5.2	F: 7.0	G: 3044
C=C(C)Cn1c(CN(C)Cc2ccccc2)nc2c1c(=O)n(C)c(=O)n2C
  A: 13.9	B: 8.5	C: -4.4	D: -15.1	E: -0.5	F: 9.2	G: 3459
O=C(NCc1ccccc1)c1cccnc1Sc1ccccc1
  A: 3.0	B: 2.3	C: -1.8	D: -0.9	E: 4.1	F: -2.3	G: 4049
O=C(CSc1ncc(-c2ccccc2)[nH]1)Nc1ccccc1
  A: 3.3	B: 3.6	C: -12.4	D: -9.8	E: 8.7	F: -10.4	G: 7651
COc1ccc(S(=O)(=O)Nc2ccc3c(c2)N(C(C)=O)CCC3)cc1OC
  A: nt	B: nt	C: 3.5	D: -6.9	E: nt	F: nt	G: ?
C#CCOCCOCCOCCNc1nc(N2CCN(C(=O)C(CCC(=O)O)n3cc(C(N)CO)nn3)CC2)nc(N2CCN(C(=O)C(Cc3ccc(O)cc3)n3cc(C(N)C(C)CC)nn3)CC2)n1 (stereo not drawn)
  A: -0.5	B: 5.4	C: nt	D: nt	E: 0.8	F: -8.0	G: nt
CCOc1ccc(NC(=O)N[C@@H](CCSC)C(=O)OC)cc1
  A: 7.0	B: 8.2	C: -6.8	D: 0.0	E: 1.0	F: 0.8	G: 15510
Cc1ccccc1CNC(=O)Cc1ccccc1[N+](=O)[O-]
  A: -4.8	B: 1.5	C: -13.9	D: -38.3	E: 6.3	F: 2.5	G: 1962
CCOc1ccc(CN2CCC(Cc3ccccc3)CC2)cc1
  A: 14.7	B: 9.5	C: 8.7	D: -13.9	E: -1.4	F: 0.0	G: 3291
CCCN1C2CCCC1CC(NC(=O)c1ccccc1F)C2 (stereo not drawn)
  A: -73.6	B: 3.1	C: 8.6	D: -3.9	E: 4.4	F: 9.5	G: 7025
Cc1ccc(C(=O)NCC(=O)OCC(=O)N(CC(C)C)c2c(N)n(Cc3ccccc3)c(=O)[nH]c2=O)cc1
  A: -1.2	B: 1.5	C: -0.9	D: 10.5	E: 1.8	F: 4.3	G: 5751
CC(=O)Nc1ccc(C(=O)OCC(=O)NCc2ccccc2)cc1
  A: -12.5	B: 1.5	C: -2.5	D: -20.1	E: 4.2	F: 1.9	G: 4856
CCOC(=O)c1ccc2nc(CCC(=O)N[C@H](C(=O)OC)C(C)C)c(=O)n(CC)c2c1
  A: 1.5	B: 6.2	C: -8.5	D: -3.8	E: 3.4	F: 6.9	G: 4274

Limited to ugtP null kill, Mtb hypoxia inh growth and Bead autofluor (3 entries from above):
SMILES | ugtP null kill | Mtb hypoxia inh growth | Bead autofluor
Cc1ccc(C(=O)NCC(=O)OCC(=O)N(CC(C)C)c2c(N)n(Cc3ccccc3)c(=O)[nH]c2=O)cc1 | 4.3 | 1.5 | 5751
CCOC(=O)c1ccc2nc(CCC(=O)N[C@H](C(=O)OC)C(C)C)c(=O)n(CC)c2c1 | 6.9 | 6.2 | 4274
CCN(CC)C(=O)c1sc2c(c1C)c(=O)n(-c1ccc(OC)cc1OC)c(=O)n2CC(=O)c1ccccc1 | 7.1 | 2.4 | 4031

Compound profiles, from the list above.
Cc1ccc(-c2c(C(=O)O)c(C(=O)O)c3n2CSC3)cc1 is listed as Mtb hypoxia inh: 14.6; Mtb hypoxia inh growth: 4.1; BJeLR lethal: 5.3; PrP UTR inh: -8.9; RN4220 kill: -6.8; ugtP null kill: 7.3; Bead autofluor: 3301
COc1ccc(S(=O)(=O)Nc2ccc3c(c2)N(C(C)=O)CCC3)cc1OC is listed as Mtb hypoxia inh: nt; Mtb hypoxia inh growth: nt; BJeLR lethal: 3.5; PrP UTR inh: -6.9; RN4220 kill: nt; ugtP null kill: nt; Bead autofluor: ?
CCOc1ccc(CN2CCC(Cc3ccccc3)CC2)cc1 is listed as Mtb hypoxia inh: 14.7; Mtb hypoxia inh growth: 9.5; BJeLR lethal: 8.7; PrP UTR inh: -13.9; RN4220 kill: -1.4; ugtP null kill: 0.0; Bead autofluor: 3291

The list goes on:
Letters: A = Mtb hypoxia inh; B = Mtb hypoxia inh growth; C = BJeLR lethal; D = PrP UTR inh; E = RN4220 kill; F = ugtP null kill; G = Bead autofluor
Cc1cc(C)nc(SCc2nc(N)nc(-c3ccccc3O)n2)n1
  A: 0.2	B: 1.5	C: -0.9	D: 4.3	E: 4.4	F: -1.5	G: 4364
O=[N+]([O-])c1c(NCCO)cc(N2CCN(Cc3ccc4c(c3)OCO4)CC2)c2nonc12
  A: 5.6	B: 4.9	C: 2.1	D: -14.0	E: 3.7	F: -0.7	G: 2552
c1ccc(-c2cn(-c3ccccc3)c3ncnc(N4CCCCC4)c23)cc1
  A: 17.1	B: 9.0	C: 0.7	D: -21.7	E: -12.6	F: 18.1	G: 3828
C=CCn1cnc2scc(-c3ccc(C)c(C)c3)c2c1=O
  A: 9.3	B: 3.2	C: -6.7	D: -11.8	E: 6.6	F: -0.5	G: 2585
COC(=O)c1ccc2c(=O)n(NC(C)=O)c(=S)[nH]c2c1
  A: 3.1	B: 4.1	C: -10.9	D: -17.0	E: -2.4	F: -19.2	G: 23622*
Cc1ccc(-n2ncc3c2CCCC3NC(=O)CSc2ccccn2)cc1C (stereo not drawn)
  A: 11.3	B: 9.2	C: 4.1	D: -13.9	E: -2.8	F: 10.6	G: 6106
CCn1c(-c2ccccc2)csc1=Nc1ccc(O)cc1
  A: 3.3	B: -4.2	C: 5.9	D: -89.2	E: 0.5	F: 66.9	G: 1944
Cn1cccc1/C=N/NC(=O)c1cccnc1
  A: nt	B: nt	C: -3.4	D: -21.9	E: nt	F: nt	G: 8924
CC(C)c1ccc(C=NNC(=O)c2ccc(-n3cnnn3)cc2)cc1
  A: 13.0	B: 2.9	C: nt	D: nt	E: 4.2	F: 2.1	G: nt
O=C1C2CCc3ccccc3C2N1c1ccccc1 (stereo not drawn)
  A: 0.8	B: 6.7	C: nt	D: -20.6	E: 1.3	F: -14.9	G: 3017
Cc1cc(S(=O)(=O)NCc2ccc(S(N)(=O)=O)cc2)c(C)s1
  A: 10.8	B: 2.3	C: -0.3	D: -19.3	E: 4.0	F: -5.9	G: 21825*
CCN(CC)CCNc1nc(-n2nc(C)cc2C)nc2sc3c(c12)CC(C)(C)OC3
  A: 12.6	B: 15.4	C: 2.5	D: -18.0	E: 0.5	F: -3.1	G: 3925
CC(=O)N1CCN(CC(=O)Nc2ccccc2C(=O)NCc2ccc(C)cc2)CC1
  A: 0.3	B: -13.1	C: 6.3	D: -9.7	E: 1.7	F: 4.2	G: 3766
COc1ccc(NC(=O)CSc2nnc(C(C)C)n2N)cc1
  A: nt	B: nt	C: 1.2	D: -9.9	E: -1.0	F: -3.9	G: 2755
O=S(=O)(Nc1nc2ccccc2nc1N1CCN(c2ccccn2)CC1)c1ccc(Cl)cc1
  A: 10.5	B: 8.8	C: nt	D: 0.4	E: 5.2	F: 3.6	G: 11543
O=C(NCC1CCCO1)c1cc2c(s1)CCC2 (stereo not drawn)
  A: nt	B: nt	C: 7.1	D: -44.6	E: 3.1	F: 2.9	G: 4341
Cc1c(C(=O)c2ccccc2)c(=O)n(C)c(=O)n1C
  A: 1.0	B: 4.3	C: 17.2	D: -21.5	E: 11.8	F: 4.9	G: 4583
COc1ccc2c(C#N)c3ccccn3c2c1
  A: -1.5	B: 3.0	C: 1.4	D: -13.6	E: -2.9	F: 2.0	G: 4561
Cc1ccc(NC(=O)c2cc(NC(=O)c3ccccc3C(=O)O)ccc2N2CCCCC2)cc1
  A: 2.0	B: 5.4	C: -3.9	D: -18.9	E: 7.2	F: -6.4	G: 5128
COc1cccc(OC)c1OCCN1CCCC1
  A: 2.1	B: -3.5	C: -0.8	D: -37.9	E: 4.4	F: 2.0	G: 3708
O=C(CN1C(=O)c2cccc3cccc(c23)C1=O)N1CCCCC1
  A: -3.2	B: 7.4	C: -17.3	D: -18.9	E: 5.7	F: 5.8	G: 2918
COc1ccc(OC)c(-c2nn(-c3ccccc3)cc2C(=O)N2CCc3ccccc3C2)c1
  A: 9.2	B: -0.9	C: nt	D: -19.2	E: 0.6	F: -10.4	G: 8843
CCOC(=O)c1c(NC(=O)CN2CCOCC2)sc(C(=O)NC)c1C
  A: -10.1	B: 0.5	C: 4.7	D: -22.5	E: -0.3	F: -4.6	G: 22110*
CCOC(=O)[C@@H]1[C@H]2COc3ccccc3[C@@H]2N2C(=O)N(c3ccccc3)C(=O)[C@@]12C
  A: nt	B: nt	C: 1.9	D: -18.0	E: nt	F: nt	G: 2810
COc1cc(S(=O)(=O)N2CCN(c3ccccc3F)CC2)ccc1Cl
  A: 5.5	B: 4.6	C: 5.4	D: -29.5	E: 3.0	F: 13.6	G: 20773*
CCOc1ccc(NC(=O)CN(C)S(=O)(=O)c2ccc(-c3ccc(=O)[nH]n3)s2)cc1
  A: 2.0	B: -0.8	C: 6.5	D: -11.7	E: 2.9	F: 4.9	G: 5067
CC(C)n1c(NCc2c[nH]c3ccccc23)nc2ccccc21
  A: 6.2	B: 12.7	C: 0.5	D: -12.1	E: 3.4	F: -6.8	G: 2935
CC(C)OC(=O)NCCOC(=O)Nc1ccc(Cl)cc1
  A: 3.1	B: -1.0	C: -1.7	D: -20.4	E: 0.0	F: 5.0	G: 4322
CCOC(=O)Cn1nc(NC(=O)c2ccc(C(=O)OC)cc2)cc1C
  A: 13.7	B: -3.9	C: 10.9	D: -20.6	E: 4.7	F: 6.7	G: 3955
COc1ccc(NC(=O)c2cc(-c3ccc(C)c(C)c3O)n[nH]2)cc1Cl
  A: -7.3	B: -5.4	C: 19.1	D: nt	E: 41.4	F: 49.4	G: 3243
CCSc1nc(N)nc(-c2cccs2)c1C#N
  A: nt	B: nt	C: -1.0	D: -18.5	E: 3.4	F: 7.3	G: 2801
COc1ccc(N[C@@H]2CCN3C(=O)c4ccccc4[C@@H]3C[C@H]2O)cc1
  A: 2.9	B: 2.0	C: nt	D: -1.6	E: 4.1	F: -0.6	G: 3583
COc1ccc(C(=O)NC(C)c2ccc(-n3ccnc3)cc2)c(OC)c1 (stereo not drawn)
  A: -12.0	B: 3.9	C: -7.0	D: 5.5	E: -2.2	F: -2.6	G: 6421
